Assay outcomes: PubChem, Broad Institute
Vaccinia stage: blocks a specific stage of Vaccinia orthopoxvirus infection; Vaccinia-infected cells, mCherry/Venus stage reporter fluorescence; active compounds read low; some inactives read as strong as hits; activity change (mCherry), % (test concentration not listed); 89,000 compounds, 0.01% hits; AID 1053133;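 active = mCherry past -33% and 40 or more points under the early reporter, replicates agreeing; inconclusive = past -33% without that gap or agreement; tested in A549 cells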;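 also: scaled between vehicle wells and reference inhibitor wells; 23 nL library stock went into each well; one replicate is shown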
Vaccinia stage Venus: recorded beside Vaccinia stage, whose call it bears; activity change (Venus), %; measured here: Venus reporter, other viral stage;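 negative = less Venus signal; first of two replicates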
* hit, by the source's call; ? = inconclusive; . = not tested or not shown.

Each structure is followed by: Vaccinia stage Venus, Vaccinia stage
COc1ccc(S(=O)(=O)N(C)C[C@@H]2Oc3cc(C#CC4CCCCC4)ccc3S(=O)(=O)N([C@H](C)CO)C[C@H]2C)cc1
 : -12, -7
O=C(C[C@H]1CC[C@@H]2[C@H](COC[C@@H](O)CN2C(=O)c2cccnc2)O1)NC1Cc2ccccc2C1
 : -6, -3
C/C=C/c1ccc(C2[C@@H]3CN(C(=O)Nc4ccccc4OC)C[C@H]2N3)cc1 (stereo partly drawn)
 : -3, ?
CCNC(=O)[C@H]1[C@H](CO)[C@H]2Cn3c(ccc(-c4cccnc4)c3=O)[C@@H]1N2Cc1ccccc1
 : -3, -6
CCCC#Cc1cnc2c(c1)C(=O)N([C@@H](C)CO)C[C@H](C)[C@@H](CN(C)C(=O)c1ccc3c(c1)OCO3)O2
 : -10, 0
COc1ccc(-c2ccc3c(c2)[C@H]2[C@H](CCN2C(=O)C2CC2)[C@@H](CO)N3C)cc1
 : ., ?
COc1cccc(-c2ccc3c(c2)[C@@H]2[C@@H](CCN2C(=O)NC2CCCCC2)[C@H](CO)N3C)c1
 : ., ?
Cc1noc(C)c1NC(=O)N(C)C[C@H]1Oc2ccc(NS(=O)(=O)c3ccccc3)cc2CC(=O)N([C@@H](C)CO)C[C@@H]1C
 : 19, 39
COCC(=O)N(C)C[C@@H]1Oc2ncc(C#Cc3ccccc3OC)cc2C(=O)N([C@@H](C)CO)C[C@@H]1C
 : -1, 3
O=C(C[C@@H]1CC[C@@H](NC(=O)C2CCC2)[C@H](CO)O1)NC1CCC1
 : -1, -1
COc1cccc(CN2[C@@H](CO)[C@H](c3ccccc3)C23CN(C(=O)C2CCOCC2)C3)c1
 : 12, 6
CCCNC(=O)Nc1ccc2c(c1)C(=O)N(C)C[C@@H](OC)[C@@H](C)CN(C(=O)C1CCCCC1)[C@@H](C)CO2
 : -1, 7
CCO[C@H]1OC(C(=O)N2CCCCCCC2)=C[C@@H](C2CC2)[C@@H]1CCCO
 : 8, 6
CCC(=O)N1C[C@H]2[C@@H](c3ccccc31)[C@H](CO)N2Cc1ccccc1F
 : 8, 10
C[C@H](CO)N1C[C@H](C)[C@@H](CN(C)Cc2ccc3c(c2)OCO3)Oc2ncc(/C=C/c3ccccc3)cc2C1=O
 : -27, -30
Cc1ccccc1S(=O)(=O)N1[C@H](C#N)[C@H](c2ccc(-c3ccc(F)cc3)cc2)[C@H]1CO
 : -1, 11
O=C(NCC[C@H]1CC[C@H](NC(=O)C2CCCCC2)[C@@H](CO)O1)Nc1ccc(Cl)cc1
 : -7, -4
C[C@H]1CN([C@@H](C)CO)C(=O)Cc2cc(NC(=O)Nc3cccc4ccccc34)ccc2O[C@@H]1CN(C)C
 : -8, -4
CO[C@H]1CN(C)C(=O)c2cc(C#N)ccc2OC[C@H]2O[C@@H](CC[C@H]2OC)CCN(C)C(=O)[C@H]1C
 : 4, 23
C[C@H]1CN([C@@H](C)CO)C(=O)c2cc(NC(=O)Cc3ccccc3)ccc2O[C@H]1CN(C)Cc1ccncc1
 : 3, 7

Some values from above:
`Cc1ccccc1S(=O)(=O)N1[C@H](C#N)[C@H](c2ccc(-c3ccc(F)cc3)cc2)[C@H]1CO` @ Vaccinia stage = 11
`CCCNC(=O)Nc1ccc2c(c1)C(=O)N(C)C[C@@H](OC)[C@@H](C)CN(C(=O)C1CCCCC1)[C@@H](C)CO2` @ Vaccinia stage = 7
`C[C@H]1CN([C@@H](C)CO)C(=O)Cc2cc(NC(=O)Nc3cccc4ccccc34)ccc2O[C@@H]1CN(C)C` @ Vaccinia stage = -4
`COCC(=O)N(C)C[C@@H]1Oc2ncc(C#Cc3ccccc3OC)cc2C(=O)N([C@@H](C)CO)C[C@@H]1C` @ Vaccinia stage Venus = -1

The list continues.
Each structure is followed by: Vaccinia stage Venus, Vaccinia stage
C[C@H]1CN([C@@H](C)CO)C(=O)c2cc(/C=C/c3ccccc3)cnc2O[C@@H]1CN(C)C(=O)Cc1cccnc1
 : -2, -2
COc1ccc(S(=O)(=O)N(C)C[C@@H]2OCCCC[C@@H](C)Oc3ccc(NC(=O)c4ccccc4)cc3C(=O)N([C@@H](C)CO)C[C@H]2C)cc1
 : ., ?
C[C@H]1CN([C@@H](C)CO)C(=O)c2cccc(NS(C)(=O)=O)c2O[C@H]1CN(C)Cc1ccncc1
 : 4, 7
COCC#Cc1cnc2c(c1)C(=O)N([C@@H](C)CO)C[C@H](C)[C@@H](CN(C)C(=O)NC1CCCC1)O2
 : 1, 5
C[C@H]1CN([C@@H](C)CO)C(=O)Cc2cc(NS(=O)(=O)c3cccs3)ccc2O[C@H]1CN(C)C(=O)Nc1ccccc1
 : 20, 21
C[C@@H]1CN([C@H](C)CO)C(=O)c2cc(NC(=O)CCC(F)(F)F)ccc2O[C@H]1CN(C)C(=O)Nc1ccc(C(F)(F)F)cc1
 : 6, 14
CN(C)CC(=O)N1[C@@H]2Cn3c(ccc(-c4ccncc4)c3=O)[C@H]1[C@@H](C(=O)NC1CCC1)[C@@H]2CO
 : 5, 9
C[C@@H]1CN([C@H](C)CO)C(=O)c2cc(NS(=O)(=O)c3ccc(Cl)cc3)ccc2O[C@@H](C)CCCCO[C@@H]1CN(C)C(=O)c1ccccc1
 : ., ?
CO[C@H]1CN(C)C(=O)c2ccc(NC(=O)CC(F)(F)F)cc2OC[C@@H](C)N(C(=O)C2CCCCC2)C[C@@H]1C
 : -3, -8
C/C=C/c1cnc2c(c1)C(=O)N([C@@H](C)CO)C[C@@H](C)[C@@H](CN(C)Cc1ccc(F)cc1)O2
 : 12, 8
O=C1CN(Cc2ccc(F)cc2)C[C@H]2[C@@H](c3ccc(Br)cc3)[C@@H](CO)N12
 : 10, 20
CCC(=O)NC[C@@H]1[C@H](c2ccccc2)[C@H](CO)N1C(=O)C1CCC1
 : 6, -4
C[C@@H]1CN([C@@H](C)CO)C(=O)c2cccc(NC(=O)Nc3ccc(C(F)(F)F)cc3)c2O[C@@H]1CN(C)Cc1ccncc1
 : -9, -11
COc1ccc(CNC(=O)N(C)C[C@H]2OCc3ccccc3-c3c(n(C)c4ccccc34)C(=O)N([C@@H](C)CO)C[C@@H]2C)cc1
 : ., ?
O=C(C[C@H]1CC[C@@H](NC(=O)Nc2ccc(C(F)(F)F)cc2)[C@@H](CO)O1)NCc1cc(F)cc(F)c1
 : -10, -6
O=C(C1CCCC1)N1C[C@@H]2[C@H](c3ccccc31)[C@H](CO)N2C(=O)c1ccccc1
 : 16, 1
COc1ccc(CN(C)C[C@@H]2Oc3ccc(NS(=O)(=O)c4cn(C)cn4)cc3CC(=O)N([C@@H](C)CO)C[C@H]2C)cc1
 : 6, 19
C[C@H]1CN([C@@H](C)CO)C(=O)c2cc(NC(=O)CCCCCC(=O)Nc3ccccc3N)ccc2O[C@H]1CN(C)Cc1ccc(Cl)c(Cl)c1
 : ., ?
C[C@@H]1CN([C@H](C)CO)C(=O)c2cc(NC(=O)Cc3ccccc3)ccc2O[C@@H](C)CCCCO[C@@H]1CN(C)C(=O)Nc1cccc2ccccc12
 : 8, 4
C[C@@H]1CN([C@H](C)CO)C(=O)c2cccc(NC(=O)c3nc4ccccc4s3)c2O[C@@H]1CN(C)Cc1ccccc1
 : -27, -32

Compound profiles, from the list above.
CO[C@H]1CN(C)C(=O)c2cc(C#N)ccc2OC[C@H]2O[C@@H](CC[C@H]2OC)CCN(C)C(=O)[C@H]1C across the screens: Vaccinia stage Venus: 4; Vaccinia stage: 23
C[C@@H]1CN([C@@H](C)CO)C(=O)c2cccc(NC(=O)Nc3ccc(C(F)(F)F)cc3)c2O[C@@H]1CN(C)Cc1ccncc1 across the screens: Vaccinia stage Venus: -9; Vaccinia stage: -11

Next section:
Each structure is followed by: Vaccinia stage Venus, Vaccinia stage
CCCNC(=O)N(C)C[C@H]1Oc2cc(Br)ccc2S(=O)(=O)N([C@@H](C)CO)C[C@H]1C
 : 4, 12
CC(C)NC(=O)Nc1ccc2c(c1)C(=O)N([C@@H](C)CO)C[C@@H](C)[C@@H](CN(C)C(=O)NC1CCCCC1)OCCCC[C@@H](C)O2
 : 0, 9
O=C(CCN1CCCCC1)N[C@@H]1CC[C@H](CCn2cc(-c3cccc(F)c3)nn2)O[C@@H]1CO
 : -4, -5
C[C@@H]1CN([C@H](C)CO)C(=O)CCCn2cc(nn2)CO[C@@H]1CN(C)S(=O)(=O)c1ccc(Oc2ccccc2)cc1
 : -26, -32
COCC(=O)N1[C@@H](CO)[C@H](c2ccc(-c3ccccc3OC)cc2)C12CN(C(C)=O)C2
 : 9, 2
C[C@@H]1CN([C@@H](C)CO)C(=O)CCCn2cc(nn2)CO[C@@H]1CN(C)C(=O)Nc1ccnc(N2CCOCC2)c1
 : 8, 14
C[C@@H]1CCCCO[C@@H](CN(C)Cc2ccc3c(c2)OCO3)[C@@H](C)CN([C@@H](C)CO)C(=O)c2cc(NS(C)(=O)=O)ccc2O1
 : 7, -1
Cc1ccccc1-c1ccc([C@@H]2[C@@H](CO)N3CCCCN(S(=O)(=O)Cc4ccccc4)C[C@H]23)cc1
 : ., ?
O=C(O)C[C@H]1C[C@@H]2c3cc(NC(=O)c4cccnc4)ccc3O[C@@H]2[C@@H](CO)O1
 : 9, 9
CCS(=O)(=O)Nc1ccc2c(c1)C(=O)N(C)C[C@@H](OC)[C@@H](C)CN(C(C)=O)[C@@H](C)CO2
 : 9, 10
C/C=C/c1ccc2c(c1)O[C@H](CN(C)C(=O)Cc1ccccn1)[C@@H](C)CN([C@H](C)CO)S2(=O)=O
 : -7, 0
Cc1ccc(S(=O)(=O)N(C)C[C@@H]2OCCCC[C@@H](C)Oc3ccc(NC(=O)c4ccccc4)cc3C(=O)N([C@@H](C)CO)C[C@H]2C)cc1
 : ., ?
O=C(C[C@H]1CC[C@H]2[C@@H](COC[C@@H](O)CN2CCC(F)(F)F)O1)NCC1CC1
 : 9, 7
COc1ccc(NC(=O)N(C)C[C@H]2Oc3c(NC(=O)Nc4c(C)noc4C)cccc3C(=O)N([C@@H](C)CO)C[C@@H]2C)cc1
 : 0, -3
O=C(C[C@@H]1CC[C@H]2[C@@H](COC[C@@H](O)CN2C(=O)c2ccc3c(c2)OCO3)O1)NC1CCC1
 : 5, 7
C[C@@H]1CN([C@@H](C)CO)C(=O)Cc2cc(NC(=O)Nc3ccccc3)ccc2O[C@H]1CN(C)Cc1ccc(C(F)(F)F)cc1
 : -21, -34
CC(=O)N1[C@@H]2Cn3c(ccc(C4=CCCCC4)c3=O)[C@H]1[C@@H](C(=O)NC1CCCC1)[C@@H]2CO
 : -4, 0
C[C@H]1CN([C@@H](C)CO)C(=O)c2cccc(NS(=O)(=O)c3ccc(Cl)cc3)c2O[C@H]1CN(C)Cc1ccc(Oc2ccccc2)cc1
 : ., ?
CO[C@H]1CN(C)C(=O)c2cc(NC(=O)NC(C)C)ccc2OC[C@H](C)N(C(=O)CN(C)C)C[C@H]1C
 : 7, 4
C[C@@H]1CN([C@H](C)CO)C(=O)c2cc(-c3ccc(C#N)cc3)cnc2O[C@H]1CN(C)CC1CCCCC1
 : -15, -23
OC[C@@H]1[C@H](c2ccc(C3=CCCC3)cc2)[C@H]2CN(Cc3cccnc3)CCCCN12
 : -14, -17
COc1ccc(CN(C)C[C@H]2OCCCC[C@@H](C)Oc3ccc(NC(=O)Nc4ccc(C(F)(F)F)cc4)cc3C(=O)N([C@@H](C)CO)C[C@@H]2C)cc1
 : ., ?
COc1ccc(S(=O)(=O)N[C@@H]2CC[C@H](CC(=O)NCc3ccccc3F)O[C@H]2CO)cc1
 : 7, 0
Cc1ccc(-c2ccc3c(c2)O[C@@H](CN(C)C(=O)Nc2ccc(C(F)(F)F)cc2)[C@H](C)CN([C@@H](C)CO)S3(=O)=O)cc1
 : ., ?
CC(C)(C)[S@](=O)N1Cc2cc(C(=O)N3CCCCC3)nc(-c3cccc(C4=CCCC4)c3)c2[C@@H]1CCO
 : 15, 5
CC(C)(C)[S@@](=O)N1Cc2cc(C(=O)NCc3ccccc3F)nc(-c3cccc(-c4ccncc4)c3)c2[C@H]1CCO
 : ., ?
O=C([C@@H]1[C@@H](CO)[C@@H]2Cn3c(ccc(-c4ccccc4)c3=O)[C@H]1N2)N1CCCCC1
 : 10, 13
C[C@@H]1CN([C@H](C)CO)S(=O)(=O)c2ccc(C#CC3CC3)cc2O[C@H]1CN(C)C(=O)c1ccccc1
 : 0, -5
COc1ccc2c3c(n(C)c2c1)[C@H](CO)N(C(=O)CN1CCOCC1)CC31CN(Cc2ccncc2)C1
 : 4, 11
O=C(C[C@@H]1CC[C@H]2[C@@H](COC[C@H](O)CN2Cc2ccccc2F)O1)N[C@@H]1CCN(Cc2ccccc2)C1
 : -6, -7
CNC[C@H]1OCCCC[C@H](C)Oc2ccc(NS(=O)(=O)c3ccc(OC)cc3)cc2C(=O)N([C@@H](C)CO)C[C@@H]1C
 : 7, 6
Cc1ccc(S(=O)(=O)N[C@@H]2C=C[C@H](CC(=O)NCc3ccc(Cl)c(Cl)c3)O[C@H]2CO)cc1
 : 1, 0
O=C(NCc1ccncn1)[C@H]1[C@H](CO)[C@H]2Cn3c(ccc(-c4ccc(F)cc4)c3=O)[C@H]2N1CC1CC1
 : -4, -5
Cn1cnc(S(=O)(=O)N2C[C@H](O)COC[C@@H]3O[C@H](CC(=O)NC4Cc5ccccc5C4)CC[C@H]32)c1
 : 4, 6
CC(C)NC(=O)Nc1ccc2c(c1)C(=O)N([C@@H](C)CO)C[C@@H](C)[C@H](CN(C)S(=O)(=O)c1ccccc1)OCCCC[C@@H](C)O2
 : -7, -3
C[C@H](O)C#Cc1cnc2c(c1)C(=O)N([C@H](C)CO)C[C@H](C)[C@@H](CN(C)Cc1cccc(C(=O)O)c1)O2
 : 6, 10
COCC(=O)N1C[C@H](C)[C@@H](OC)CN(C)C(=O)c2cc(NC(=O)c3cnccn3)ccc2OC[C@@H]1C
 : 11, 14
CO[C@H]1CN(C)C(=O)c2cc(NC(=O)C3CCOCC3)ccc2OC[C@@H](C)N(CC2CC2)C[C@@H]1C
 : 0, 0
COc1ccc2c3c([nH]c2c1)[C@@H](CO)N(C(=O)Nc1ccc(F)cc1)CC31CN(C(=O)Nc2c(C)noc2C)C1
 : -10, -8
CN(C)c1ccc2c(c1)[C@@H]1C[C@@H](CC(=O)NCc3ccccc3)O[C@H](CO)[C@@H]1O2
 : 6, 9

Only part of the results is shown; the hit share may differ from the screen's.
